RecA splice inh – Mtb RecA intein splicing inhibition; inhibition, %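 (about 9 µM by stock and volumes)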; cell-free RecA intein splicing, fluorescence; 290,000 tested, 0.75% active; in the data active = inhibition above about 30%; inconclusive = no clear call, values can overlap the other calls;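 note: 0% = vehicle wells and 100% = reference inhibitor control wells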
Target sequence (P9WHJ3 whole entry, looked up, canonical isoform): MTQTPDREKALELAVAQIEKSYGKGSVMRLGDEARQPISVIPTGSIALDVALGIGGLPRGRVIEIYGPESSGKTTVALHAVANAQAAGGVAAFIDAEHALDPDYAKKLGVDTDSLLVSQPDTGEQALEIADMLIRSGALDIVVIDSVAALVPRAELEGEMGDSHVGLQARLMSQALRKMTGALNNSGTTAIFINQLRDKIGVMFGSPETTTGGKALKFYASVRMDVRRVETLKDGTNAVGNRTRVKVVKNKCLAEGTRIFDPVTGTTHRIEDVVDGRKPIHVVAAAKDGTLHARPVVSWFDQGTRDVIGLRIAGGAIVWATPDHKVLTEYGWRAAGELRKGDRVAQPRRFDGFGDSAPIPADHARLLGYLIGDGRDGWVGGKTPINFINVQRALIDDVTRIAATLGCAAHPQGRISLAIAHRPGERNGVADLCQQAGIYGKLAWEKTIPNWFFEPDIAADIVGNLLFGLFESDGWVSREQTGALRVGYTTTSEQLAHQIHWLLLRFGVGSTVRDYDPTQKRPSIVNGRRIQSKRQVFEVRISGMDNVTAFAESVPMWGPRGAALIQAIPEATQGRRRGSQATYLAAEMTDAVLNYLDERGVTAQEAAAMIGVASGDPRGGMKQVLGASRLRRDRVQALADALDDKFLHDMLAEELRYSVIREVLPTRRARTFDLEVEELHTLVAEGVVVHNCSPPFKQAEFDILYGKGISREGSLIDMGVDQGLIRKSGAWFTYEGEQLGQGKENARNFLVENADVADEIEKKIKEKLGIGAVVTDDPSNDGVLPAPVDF
Arbovirus anti – antivirals against arbovirus infection; inhibition, % at 10 µM; AID 1251; 200,000 tested, 0.37% active; arbovirus infection cell-based antiviral screen;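 active = inhibition from about 30%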;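 note: bluetongue infection of BSR cells; cell survival read as ATP light after 72 h; 0% = infected wells without compound and 100% = uninfected wells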
YopH PTP inh – blocks Yersinia enterocolitica YopH tyrosine phosphatase | inhibition, %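 (about 10 µM by stock and volumes)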 | fluorescence Ex485/Em525 | 140,000 tested, 0.16% active;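 active = inhibition of 50% or more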;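 note: controls were vehicle for no effect and minimum signal wells for full effect; inactives centre near -20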
Mtb betalactam – beta-lactam sensitization of Mtb H37Rv. AID 434955. M. tuberculosis H37Rv growth with meropenem, percent inhibition; hits of this screen are not shown here. inhibition, % at 25 µM. 330,000 tested, 0.27% active;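 active = about 74% or more and at least 40 points above the plate without the antibiotic, then above 30% in a dose series; inconclusive = first-round hits that could not be retested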;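 note: growth measured after seven days incubation then overnight dye step; 0% = bacteria only wells and 100% = bacteria with antibiotic; twin plates without the antibiotic show which effects depend on it; some results filed as inactive read as strong as hits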
Mtb growth – M. tuberculosis H37Rv growth inhibitors, H37Rv strain (AID 1626); M. tuberculosis H37Rv growth inhibition; higher % means a stronger effect; one-dose inhibition, % at 10 µM; IC50 in µM for titrated hits; 220,000 tested, 0.95% active;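 active = confirmed in a dose series; inconclusive = inhibition above 80% but not taken into the dose series; inactive = below 80% or under 30% at every dose of the series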;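 note: bacteria incubated seven days before Alamar blue readout; 0% = bacteria only wells and 100% = bacteria with antibiotic wells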
Arbovirus anti repeat – also measured in Arbovirus anti; calls as there; inhibition, %; measured here: 10K subset replicate screen; many hits read low in the repeat;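 first of two repeat runs on a subset; 0% = infected and 100% = uninfected wells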
The depositor's hits bear a star; ? = inconclusive; . = not tested or not shown. An excerpt; the hit share may differ from the screen's.

SMILES | RecA splice inh | Arbovirus anti | YopH PTP inh | Mtb betalactam | Mtb growth | others
CN(C)c1ccc(/C=C2\SC(=O)N(CC(O)Cn3c4ccccc4c4ccccc43)C2=O)cc1 (centres undefined) | -2.7 | -5 | -6 | 5 | 8%
CCN(CC)Cc1cc(C(=O)O)c(C)o1 | 1.9 | 3 | . | -7 | -9%
Cc1ccccc1OCC(=O)Nc1cccc(Cl)c1C | -1.2 | . | . | 7 | .
Cc1ccc(OCCn2cc(C(=O)O)c3ccccc32)cc1 | 1.8 | 2 | . | 26 | -7%
COc1ccc2[nH]c3c(=O)n(Cc4ccc(C(=O)N5CCCCCC5)cc4)c(=S)[nH]c3c2c1 | 3.5 | -4 | . | 3 | 1%
COc1cc(CNc2ccc3[nH]c(=O)[nH]c3c2)ccc1OCc1cccc(C)c1 | 1.1 | . | . | 3 | .
COC(=O)c1c(C(C)=O)cnc2ccc(Br)cc12 | 0.4 | -5 | -51 | 1 | 4%
O=C(CN(Cc1ccco1)C(=O)CNS(=O)(=O)c1ccc(Cl)cc1)NC1CCCCC1 | 3.8 | -3 | -20 | 2 | -1%
O=C(Nc1nccs1)c1cc(Cl)nc2ccccc12 | . | . | . | 6 | -1%
COc1cc(/C=C(\C#N)C(=O)Nc2cc(C(F)(F)F)ccc2Cl)ccc1OCC(=O)Nc1cccc(C(F)(F)F)c1 | -31 | -12 | -7 | -1 | 7%
COc1ccc(C2C(C(N)=O)=C(C)Nc3ncnn32)cc1 (centres undefined) | 3.6 | -4 | -24 | -3 | -11%
COc1ccc(CNC(=O)CCNC(=O)N2CCn3c2nc2ccccc23)cc1 | -0.9 | . | . | 4 | .
COc1cccc(-n2cc(CNCc3cn(C)nc3-c3ccccc3F)cn2)c1 | -0.2 | 2 | . | 3 | 5%
CNC(=S)N(Cc1ccc(OC)cc1)Cc1cc2ccc(C)cc2[nH]c1=O | -2.4 | 3 | . | -1 | -5%
COc1ccc(N2CCN(c3oc(Cc4ccccc4)nc3C#N)CC2)cc1 | -1.5 | -17 | -13 | 89 | -5%
COc1ccc(S(=O)(=O)N2CCOC2CNC(=O)C(=O)NCCN(C)C)cc1 (centres undefined) | -0.2 | . | . | 2 | .
Clc1ccc(OCc2nnc3n2N=C(c2ccc4c(c2)OCCO4)CS3)c(Cl)c1 | 0.4 | -1 | -40 | -2 | -3%
CCC1C/C(=C\c2cccnc2)C(=O)/C(=C/c2cccnc2)C1 (centres undefined) | . | -31 | 2 | . | ?
c1ccc(C(c2nnnn2C2CCCC2)N2CCN(c3nc4ccccc4s3)CC2)cc1 (centres undefined) | 12 | -2 | -3 | 6 | 18%
Cc1ccc(O)c(NC(=O)C2=CC(c3ccco3)=NS(=O)(=O)N2C)c1 | -3.3 | . | . | ? | .
Cc1ccc(C)c(S(=O)(=O)Nc2ccc(C(=O)NCC(c3ccco3)N(C)C)cc2)c1 (centres undefined) | -1.8 | . | . | -17 | .
COC(=O)c1cccc(NC(=S)Nc2cc(Cl)ccc2OC)c1 | 1.6 | 0 | . | 4 | 5%
COc1cccc(-c2csc(N3CCN(C(=S)Nc4cccc(C)c4)CC3)n2)c1 | 1.0 | 0 | . | 13 | 2%
COC(=O)Cc1ccc(NC(=S)NCCC(C)C)cc1 | 3.6 | -2 | -23 | 4 | 16%
Oc1ccc(/C=N/N=C/c2ccc(O)cc2)cc1 | . | 6 | . | -2 | 1%

Of the compounds above, these have a COOH group.
SMILES | RecA splice inh | Arbovirus anti | YopH PTP inh | Mtb betalactam | Mtb growth | others
CCN(CC)Cc1cc(C(=O)O)c(C)o1 | 1.9 | 3 | . | -7 | -9%
Cc1ccc(OCCn2cc(C(=O)O)c3ccccc32)cc1 | 1.8 | 2 | . | 26 | -7%

Further records
SMILES | RecA splice inh | Arbovirus anti | YopH PTP inh | Mtb betalactam | Mtb growth | others
COc1ccccc1CNC(=O)c1cc(C)nn1-c1ccccc1 | 2.8 | . | . | -5 | -6%
O=Cc1cc(N=Nc2ccc(S(=O)(=O)O)cc2)ccc1O | 3.7 | . | . | 1 | .
CC(=O)NC(Cc1cc(C)ccc1C)C(=O)N1CCN(C(=O)c2ccc(Br)cc2)CC1 (centres undefined) | 0.9 | -5 | . | 4 | -10%
CCN(CC)CCN(C)C(=O)c1ccc(OC2CCN(C(=O)C3CC3)CC2)cc1 | -5.5 | -11 | . | -1 | -7%
Cc1cccc(NS(=O)(=O)c2cc(C(=O)NCCC3=CCCCC3)ccc2Cl)c1 | 9.4 | -26 | -25 | 6 | 4%
CCC(C)C(Nc1ccc(C(=O)OC)cc1[N+](=O)[O-])C(=O)OC (centres undefined) | 6.2 | -1 | -18 | -5 | 2%
CC1(C)Oc2ccc3ccc(=O)oc3c2-c2cnoc21 | 0.3 | 7 | -15 | -5 | -7% | Arbovirus anti repeat=2
CC(=O)c1cc2c(cc1NC(=O)C1CC1)OCO2 | 1.6 | -1 | -12 | 2 | -4%
OC(CN1CCOCC1)CN1CCOCC1 | 2.2 | 2 | -38 | 1 | .
Cn1c(=O)c2c(nc(SCCCO)n2Cc2ccccc2Cl)n(C)c1=O | 0.7 | -1 | -4 | 8 | 0%
COC(=O)C1CSC(c2ccc(Cl)cc2)N1C(=O)c1ccccc1 (centres undefined) | 4.9 | -19 | . | -1 | 5%
CC(C)C[C@@]12C(=O)N(c3cccc(F)c3)C(=O)N1[C@H](c1ccc(Cl)cc1)[C@@H]1C(=O)N(C3CCCCC3)C(=O)[C@@H]12 | 2.8 | . | . | -13 | .
Cc1ccc(C)c(S(=O)(=O)N2CCN(C(=O)c3cncc(Br)c3)CC2)c1 | 0.8 | . | . | -2 | .
Cn1cnc(S(=O)(=O)Nc2ccc(OC(F)F)cc2)c1 | 0.8 | . | . | -9 | 3%
CCCN(Cc1ccccc1)C(=O)Nc1ccc2c(c1)nnn2C | 5.7 | -3 | -12 | 0 | 2%
COC(=O)Cc1[nH]nc2c1C(c1c[nH]c3ccccc13)C(C#N)=C(N)O2 (centres undefined) | 86* | -5 | -27 | 6 | -10%
CSc1ccccc1-c1nnc(-c2ccc(Cl)cc2)o1 | 1.0 | 12 | -24 | 69 | 12%
Oc1cc(Br)ccc1C=Nc1ccc(N2CCCCC2)cc1 | -2.6 | . | . | 2 | -6%
O=C(O/N=C/c1ccc(Br)cc1)c1ccc(F)cc1 | 0.0 | . | . | 2 | .
COc1ccc(OC)c(C(=O)CSc2nccc(-c3ccc(Br)cc3)n2)c1 | -0.9 | -9 | -23 | 5 | -5%
COc1ccc(OC)c(-n2nnnc2SCC(=O)Nc2ccccc2OC)c1 | 1.4 | . | . | -4 | .
O=C(O)CC(SCC(=O)NC1CCCc2ccccc21)C(=O)O (centres undefined) | 2.1 | . | . | -3 | -8%
CCSC(C)CC1C/C(=N/O)c2c(CC)noc2C1 (centres undefined) | 15 | 13 | -33 | 12 | 3% | Arbovirus anti repeat=2
Cc1c(C(c2ccc(Br)cc2)c2c(O)c3ccccc3oc2=O)c(=O)n(-c2ccccc2)n1C (centres undefined) | 5.5 | 1 | . | -6 | 4%
COc1ccc2c(c1)Sc1ccccc1N2CCN(C)C | -10 | -5 | -137 | -19 | 2%

Additional results:
SMILES | RecA splice inh | Arbovirus anti | YopH PTP inh | Mtb betalactam | Mtb growth | others
COc1ccc(C)cc1NCc1cccc(OC)c1OC | -1.8 | 2 | -1 | -10 | -4%
Cc1ccc(N2C(=O)C3C4C=CC(CC4)C3C2=O)c([N+](=O)[O-])c1 (centres undefined) | 0.9 | . | . | 0 | .
CC1(C)C2CCC1(CS(=O)(=O)N1CCC(C(N)=O)CC1)C(=O)C2 (centres undefined) | 3.1 | . | . | 2 | .
CC(Cc1cccnc1)NC(=O)c1cc(COc2ccc(F)cc2Cl)on1 (centres undefined) | 2.3 | . | . | -2 | .
CSc1nnc(SCC#N)s1 | -2.0 | . | . | -5 | -5%
Cc1ccc(-c2nc(NC(=O)CSc3nnc4scc(-c5ccccc5)n34)ns2)cc1 | 0.9 | 12 | . | -3 | 2% | Arbovirus anti repeat=8
CCOC(=O)C1(CCc2ccccc2)CCN(Cc2ccc(OC)cc2)CC1 | 0.2 | 6 | . | 8 | 8%
Cc1ccc(C(=O)Nc2ccc(Cl)cc2C(F)(F)F)c(Cl)c1 | -0.5 | 3 | -36 | 98 | 19%
O=C(N=C1SC2CS(=O)(=O)CC2N1Cc1ccccc1Cl)C1CCCO1 (centres undefined) | -1.7 | . | . | -1 | .
CCSc1nc(C2CC2)cc(-c2ccco2)c1C#N | 2.9 | 2 | 10 | 2 | 11%
CCn1c(SCC(=O)Nc2cc(C)on2)nnc1-c1ccc(S(=O)(=O)N2CCN(C)CC2)cc1 | 1.0 | 10 | -8 | -20 | -5%
c1ccc(C2C/C(=N\N3CCOCC3)c3ccccc3O2)cc1 (centres undefined) | -0.6 | 4 | -18 | 1 | 7%
Cc1cc(NN)nc(Cc2ccccc2)n1 | -3.0 | . | . | 3 | .
O=c1ccc(-c2ccc([N+](=O)[O-])cc2)nn1-c1ccccc1 | 1.2 | -4 | . | 0 | 2%
COC(=O)c1cc(NC(=O)/C=C/c2ccccc2)ccc1O | 11 | 8 | . | -4 | -5%
Cc1cc2c3c(c1)C(C)CC(C)(C)N3C(=O)C2=C(C#N)C#N (centres undefined) | 39* | . | . | 56 | -2%
CCN1/C(=C2/SC(=S)NC2=O)Sc2ccccc21 | . | 6 | . | -1 | 8%
COC(=O)c1ccc(C2c3c(oc4cc(C)c(C)cc4c3=O)C(=O)N2CCCN(C)C)cc1 (centres undefined) | -1.4 | 1 | . | -11 | . | Arbovirus anti repeat=0
CCOc1ccc(N=C2C(=O)Nc3ccc(C)c(Br)c32)cc1 | 12 | . | . | 94 | .
Cn1c(/C=N/Nc2nc3ccccc3[nH]2)nc2ccccc21 | 6.8 | -27 | . | 98 | 64%
CCn1cc(S(=O)(=O)Nc2cc(C(=O)OC)ccc2C)cn1 | -2.0 | . | . | -6 | .
COc1ccc(OC)c(CN(CCN2CCOCC2)C(=O)Nc2ccccc2)c1 | -2.4 | -4 | -12 | -2 | -3%
Cc1ccc(-c2cn3cc(C)ccc3n2)cc1 | -0.7 | 2 | . | 8 | 11%
CN1CCN(CCCNC(=O)c2ccc(CSCc3cccc(Cl)c3)o2)CC1 | 0.9 | -9 | -36 | 5 | 0%
COC(=O)c1sccc1NC(=O)CC1C(=O)NCCN1C(=O)c1ccc(N(C)C)cc1 (centres undefined) | 1.0 | . | . | -5 | 4%

Carrying on:
SMILES | RecA splice inh | Arbovirus anti | YopH PTP inh | Mtb betalactam | Mtb growth | others
CNC(=O)C(=O)NCCC1CCCCN1S(=O)(=O)c1cccs1 (centres undefined) | -0.4 | . | . | -14 | .
COc1cc(OC)cc(C(=O)Nc2cccc3nc(C)ccc23)c1 | 0.8 | . | . | -10 | .
CCNC(=O)CON=C1c2ccccc2-c2ccccc21 | -0.6 | -7 | -42 | 8 | -3%
CCOC(=O)c1c(NC(=O)CSc2nc3ccccc3s2)sc(C(C)=O)c1C | 3.2 | 10 | -28 | 17 | -6%
CC(C)n1c(Oc2ccc(F)cc2)nc2c1c(=O)n(C)c(=O)n2C | -1.5 | 8 | . | -6 | 9%
CCOc1ccc(NC(=O)C2CCCN(C(=O)Nc3ccccc3)C2)cc1 (centres undefined) | 0.9 | -2 | -7 | 1 | -6%
Cc1ccc(Oc2ccc(OCC(=O)NC(C)C(=O)O)cc2)cc1 (centres undefined) | -3.4 | 0 | -51 | 8 | -6%
Cc1cc(C(F)(F)F)n2ncc(C(=O)O)c2n1 | -2.4 | 1 | -49 | -3 | 0% | Arbovirus anti repeat=-4
COc1ccc(OC)c(NC(=O)c2c(NC(=O)CCC(=O)O)sc3c2CCCCC3)c1 | -4.9 | -5 | -28 | 5 | 86%
O=C(CNC(=O)c1cccc(OC(F)F)c1)OCn1nnc2ccccc2c1=O | -0.2 | 5 | . | 5 | -3%
CC(=O)N1CCN(c2ccc(NCc3ccc(C(C)C)cc3)cc2)CC1 | 3.5 | -2 | 10 | 34 | 3%
Nc1ccc(S(=O)(=O)Nc2nccc(/C=C/c3ccc(Cl)cc3)n2)cc1 | 1.2 | . | . | 2 | .
COCCCNCC1C(Oc2ccc(Cl)cc2)C(=O)N1c1ccccc1C (centres undefined) | -1.2 | 49* | -7 | 0 | 3%

Reprinted at random: four records from the list
SMILES | RecA splice inh | Arbovirus anti | YopH PTP inh | Mtb betalactam | Mtb growth | others
CCOC(=O)c1c(NC(=O)CSc2nc3ccccc3s2)sc(C(C)=O)c1C | 3.2 | 10 | -28 | 17 | -6%
COc1ccc(OC)c(NC(=O)c2c(NC(=O)CCC(=O)O)sc3c2CCCCC3)c1 | -4.9 | -5 | -28 | 5 | 86%
CCOc1ccc(NC(=O)C2CCCN(C(=O)Nc3ccccc3)C2)cc1 (centres undefined) | 0.9 | -2 | -7 | 1 | -6%
COCCCNCC1C(Oc2ccc(Cl)cc2)C(=O)N1c1ccccc1C (centres undefined) | -1.2 | 49* | -7 | 0 | 3%
